LASV entry inh: inhibitors of Lassa virus binding or cell entry; Lassa virus pseudotype entry inhibition, cell reporter; control for the full effect not named in the record; Potency, µM (doses to about 37.9 µM), inactives show at the highest dose activity change, negative = inhibition, usual class: inhibitors; 300,000 tested, 1.2% active; active means well fitted inhibition curve with a large enough effect; inconclusive means small, poorly fitted or top-dose-only effect, or effect the other way; inactive means flat fitted curve, though single readings scatter; tested in HEK293 cells; note: % is set by controls: 0 for no effect and ±100 for the full control effect; nearly all actives have a fitted effect of over 50% in size; luciferase read-out
Marburg entry inh: inhibitors of Marburg virus binding or cell entry | Marburg virus pseudotyped entry inhibition, cell reporter; control for the full effect not named in the record; about a third of the inactives were read at about 46 µM | Potency, µM (doses to about 37.8 µM), for inactives: at the highest dose activity change, negative = inhibition, most hits filed as inhibitors | 300,000 tested, 1.8% active | AID 540276; active = well fitted inhibition curve with a large enough effect; inconclusive = small, poorly fitted or top-dose-only effect, or effect the other way; inactive = flat fitted curve, though single readings scatter; tested in HEK293 cells; about a fifth of its hits are not listed in these tables; note: % is set by controls: 0 for no effect and ±100 for the full control effect; luciferase read-out
SARS PLP yeast: blocks SARS-CoV papain-like protease in a yeast assay; S. cerevisiae expressing SARS-CoV PLpro, growth rescue; control for the full effect not named in the record; Potency, µM (top dose mostly 32.9 µM), for the others: at the highest dose activity, positive = growth rescue; 330,000 tested, 0.19% active; AID 485353; note: 0% is about no effect; nearly all actives have a fitted effect of over 55% in size; growth read by luminescence after 48 h
Cruzain inh Det: cruzain (T. cruzi) inhibition with detergent | P25779 | purified cruzain, Z-FR-AMC fluorescence, 0.01% Triton | 200,000 tested, 0.43% active | AID 1478 | Potency, µM, without a hit: max response, negative = inhibition, usual class: inhibitors; active = well fitted curve in the direction sought with a large enough effect; inconclusive = small, poorly fitted or top-dose-only effect, or another doubt; inactive = no such curve, though single readings can be large; an effect the other way counts as inactive or inconclusive;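 note: plate controls were neutral wells for no effect and buffer without enzyme for full effect; nearly all actives have a fitted effect of over 40% in size; top concentration of the series not given in the record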
Target sequence (P25779 123-467 limits assumed): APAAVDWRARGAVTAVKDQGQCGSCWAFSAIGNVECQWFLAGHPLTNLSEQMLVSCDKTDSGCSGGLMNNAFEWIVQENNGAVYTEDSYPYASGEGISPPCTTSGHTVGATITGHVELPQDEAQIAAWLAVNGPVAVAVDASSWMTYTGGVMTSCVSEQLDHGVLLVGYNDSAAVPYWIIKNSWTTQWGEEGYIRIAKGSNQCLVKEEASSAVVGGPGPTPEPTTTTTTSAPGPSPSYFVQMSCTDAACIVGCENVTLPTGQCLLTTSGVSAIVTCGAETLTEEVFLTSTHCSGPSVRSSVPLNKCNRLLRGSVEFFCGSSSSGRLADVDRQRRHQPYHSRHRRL
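15 min RT preincubation of 1.5 nM cruzain with compound, then 2 uM Z-FR-AMC added; kinetic AMC fluorescence, 60 s delta. Triton X-100 0.01%, pH 5.5.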
Cruzain noTriton: cruzain (T. cruzi) inhibition without detergent | P25779 | purified cruzain, Z-FR-AMC fluorescence, no detergent | Potency, µM, inactives show max response, negative = inhibition, hits mostly inhibitors | 200,000 tested, 2.3% active; active = well fitted curve in the direction sought with a large enough effect; inconclusive = small, poorly fitted or top-dose-only effect, or another doubt; inactive = no such curve, though single readings can be large; an effect the other way counts as inactive or inconclusive;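 note: plate controls were enzyme without inhibitor for no effect and buffer without enzyme for full effect; nearly all actives have a fitted effect of over 40% in size; top concentration of the series not given in the record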
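Purified cruzain at 1.5 nM, pre-incubated 15 min with compound at room temperature in 100 mM sodium acetate pH 5.5, 5 mM DTT, 0.00005% Triton X-100. Reaction started with 2 uM Z-FR-AMC; AMC fluorescence increase over 60 s gives rate.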
RE007 growth inh: less growth of the S. pombe RE007 Vpr strain | S. pombe RE007 Vpr strain, BacTiter-Glo ATP luminescence, 24 h; control for the full effect not named in the record | Potency, µM (doses to about 92.2 µM), for the others: at the highest dose activity change, negative = less growth | 360,000 tested, 0.21% active | AID 651644; active = well fitted falling curve with a large enough effect; inconclusive = small, poorly fitted or top-dose-only effect; inactive = no such curve, though single readings can be large or run the other way;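 note: % is set by controls: 0 for no effect and ±100 for the full control effect; nearly all actives have a fitted effect of over 50% in size; the assay follows cell death caused by Vpr and the record does not say whether a fall means rescue or toxicity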
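Fission yeast RE007 carrying one integrated HIV-1 vpr copy, seeded at OD 0.01 in PMG+AL medium with 23 nL pinned compound. Grown 24 h at 30 degrees; viability read by BacTiter-Glo luminescence after 5 min.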
StopGo reporter: lowers the luciferase signal of an FMDV 2A StopGo reporter; human cells with a luciferase reporter of 2A StopGo recoding; control for the full effect not named in the record; Potency, µM (series often up to 57.9 µM), for inactives: top-dose signal change, negative = less light; 410,000 tested, 1.2% active; active = well fitted falling curve with a large enough effect; inconclusive = small, poorly fitted or top-dose-only effect; inactive = no such curve, though single readings can be large or run the other way; tested in HEK293T cells; note: % is set by controls: 0 for no effect and ±100 for the full control effect; nearly all actives have a fitted effect of over 45% in size; luciferase light after 4 h
NS1 function inh: inhibitors of influenza NS1 protein function. Potency, µM (highest dose often 46.1 µM), without a hit: top-dose activity, positive = more growth. AID 2326. 270,000 tested, 0.4% active. S. cerevisiae slowed by influenza A NS1, growth recovery by OD600; note: actives are rising curves; nearly all actives have a fitted effect of over 50% in size
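Compounds were scored for reversing the slow growth caused by influenza A NS1 in S. cerevisiae, measured by optical density at 600 nm. Assay medium contained 2% galactose at pH 6.0; NS1-free yeast of the same strain were the positive control.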
An asterisk follows results filed as active; ? = inconclusive; · = no result given; [ ] = dose if it differs, or a comment. Unless noted, calls come from the whole dose curve; as a rule, active means well fitted rising curve with a large enough effect; inconclusive means small, poorly fitted or top-dose-only effect; inactive means no such curve, though single readings can be large or run the other way. Potency is the fitted concentration of half-maximal effect. Random draw from the library, and some 4.7% of all compounds hit somewhere here.

SMILES	LASV entry inh	Marburg entry inh	SARS PLP yeast	Cruzain inh Det	Cruzain noTriton	RE007 growth inh	StopGo reporter	NS1 function inh
CC(=O)c1cccc(NC(=O)c2cccc(N3C(=O)c4ccccc4C3=O)c2)c1	0%	-1%	-3%	·	·	-12%	0%	-5%
Cc1ccnc(NC(=O)CCC(=O)N(CC(=O)NC(C)(C)C)C2CCCC2)c1	0%	26%	5%	5.5%	-2%	0%	-5%	2%
CCCC(c1nnnn1C(C)(C)CC)N1CCN(C(=O)c2ccco2)CC1 (stereo not given)	-4%	7%[46.1 µM]	1%	·	·	-7%	-5%	-11%
Cc1ccc(CNC(=O)c2ccc(Cn3c(=O)c4ccccc4n(CC(=O)Nc4ccc(C)cc4C)c3=O)cc2)cc1	-27%[46.1 µM]	7%[46.1 µM]	·	-0.1%	?	·	-7%	·
CSCCCNC(=S)N1CCc2ccccc2C1	-18%[46.1 µM]	?	1%	·	·	-20%	21%	·
Cn1nnc2ccccc2c1=O	-3%[46.1 µM]	1%[46.1 µM]	3%	·	·	10%	-3%	·
O=C(O)CC(=O)Nc1ccc(Oc2ccc(C(F)(F)F)cn2)c(Cl)c1	-16%[46.1 µM]	6%[46.1 µM]	-3%	·	·	15%	24%	·
O=c1[nH]c(CN2CCN(c3ccccc3Cl)CC2)nc2ccsc12	-22%	7%[46.1 µM]	3%	-1.8%	1%	1%	-30%	-9%
COc1ccc(CCNC(=O)CN(c2cccc([N+](=O)[O-])c2)S(C)(=O)=O)cc1	7%[46.1 µM]	11%[46.1 µM]	0%	·	·	-12%	-8%	5%
CC(C)Oc1ccc(CSc2ncn[nH]2)cc1	?	?	-1%	·	·	9%	18%	-4%
COc1ccc(/C=N/NC(=O)c2cc(-c3ccccc3OC)nc3ccccc23)cc1COC(C)=O	?	-23%	5%	-6.4%	12%	-1%	?	16%
O=C(Nc1cccc(-c2cn3c(n2)SCC3)c1)c1ccc2ccccc2n1	·	-18%[46.1 µM]	-4%	·	·	2%	17%	·
Cc1ccnc(NC(=O)c2cccc(NC(=O)c3ccc(Cl)cc3)c2)c1	-7%[46.1 µM]	-14%[46.1 µM]	·	·	·	-21%	-13%	·
CN(C)C(/C=C/Nc1ccccc1F)=C(C#N)C#N	-15%	2%	5%	2.5%	-2%	-8%	·	10%
O=C(CCC1(C(=O)O)CCC(=O)NC1)NCc1ccccc1 (stereo not given)	6%	6%	-3%	9.6%	2%	-2%	·	-2%

Single values from the results shown:
Cc1ccnc(NC(=O)c2cccc(NC(=O)c3ccc(Cl)cc3)c2)c1 | LASV entry inh: -7%[46.1 µM]
CCCC(c1nnnn1C(C)(C)CC)N1CCN(C(=O)c2ccco2)CC1 (stereo not given) | Marburg entry inh: 7%[46.1 µM]
CC(=O)c1cccc(NC(=O)c2cccc(N3C(=O)c4ccccc4C3=O)c2)c1 | LASV entry inh: 0%
COc1ccc(/C=N/NC(=O)c2cc(-c3ccccc3OC)nc3ccccc23)cc1COC(C)=O | NS1 function inh: 16%

Later entries.
SMILES	LASV entry inh	Marburg entry inh	SARS PLP yeast	Cruzain inh Det	Cruzain noTriton	RE007 growth inh	StopGo reporter	NS1 function inh
Cc1cccc(NC(=O)/C(C#N)=C/c2ccc(Sc3ccccc3)o2)c1C	1%	-30%	-1%	-3.9%	5%	0%	-5%	10%
COc1ccc(N2C(=O)C(Cl)=C(Oc3cccc(OC)c3)C2=O)cc1	?	?	0%	·	·	?	?	0%
Cc1ccccc1NC(=O)CN1C(=O)S/C(=C\c2cccn2-c2cccc(C(=O)O)c2)C1=O	-6%	?	8%	-7.1%	-25%	-20%	-10%	18%
N#Cc1c(NC(=O)C2C3C=CC(C3)C2C(=O)O)sc2c1CCCCC2 (stereo not given)	?	-28%[46.1 µM]	-2%	·	·	15%	6%	-33%
COc1cccc(-n2c(SCc3ccccn3)nc3c(c2=O)SCC3)c1	-25%	0%[46.1 µM]	2%	·	·	1%	-17%	·
Cc1ccccc1-n1c(SC/C(O)=C(\C#N)c2nc3ccccc3[nH]2)nnc1-c1ccncc1	3%	11%[46.1 µM]	3%	-14%	-12%	9%	-10%	?
O=C(COC(=O)c1ccccc1Cl)Nc1nccs1	6%	15%	10%	2.0%	?	2%	·	15%
O=c1c(Cc2ccc(F)cc2)c(O)ccn1CCc1ccccn1	·	·	0%	·	·	-11%	-21%	5%
Cc1ccccc1CSCCNS(C)(=O)=O	0%	-2%	-4%	5.1%	-3%	-2%	6%	3%
Cc1cc(C)n(CC(=O)NNC(=O)CCNC(=O)c2ccccc2Cl)n1	-3%	10%	-8%	·	·	22%	4%	·
CCn1c2ccccc2c2cc(Nc3cc(C)nc4ncnn34)ccc21	?	?	-30%	-8.0%	-2%	0%	?	-171%
O=C(CC1NCCc2ccccc21)Nc1cccc(Cl)c1 (stereo not given)	26%[46.1 µM]	?	2%	·	·	1%	26%	·
Cc1ccc(NC(=O)c2cc(-c3ccco3)on2)cc1	1%	?	1%	-3.5%	?	-6%	48%[activator]	-17%
O=C(Nc1ccc(-c2nc3c(ccc4ccccc43)o2)cc1)c1ccco1	?	?	-11%	?	-25%	12%	12%	-10%
Cc1ccc2nc(SCC(=O)Nc3ccc(F)cc3)nc(=O)n2c1	-1%[46.1 µM]	-1%	-2%	·	·	2%	-4%	·
COC(=O)c1cc2ccsc2n1CC(=O)Nc1cc(C)cc(C)c1	-6%	?	1%	2.8%	?	-13%	3%	8%
Cc1cc(CN(C)C(=O)CC2C(=O)NCCN2Cc2ccc(-c3ccccc3)cc2)on1 (stereo not given)	·	·	5%	·	·	-5%	-9%	8%
COc1ccc(-n2c(C)cc3cc(OC(C)=O)ccc32)cc1	1%	-4%	-19%	·	·	12%	13%	18%
Cc1ccc(N2CC(C(=O)Nc3cc(C)on3)CC2=O)c(C)c1 (stereo not given)	8%	7%[46.1 µM]	1%	·	·	-2%	-8%	3%
COC(=O)[C@H](Cc1ccccc1)NC(=O)c1ccc2ccccc2n1	9%	14%[46.1 µM]	-6%	·	·	-15%	0%	-26%
CCC(C)NC(=O)N[C@@H](CCSC)C(=O)O (stereo not given in full)	6%	-16%	-9%	6.8%	5%	-4%	4%	2%
O=C(NCC1CCCCC1)c1cccc(-c2ccc(O)cc2)c1	?	?	-4%	·	·	9%	10%	0%
O=C(CN(c1ccc(F)cc1)S(=O)(=O)c1ccc2c(c1)OCCO2)NCc1ccncc1	4%	9%	3%	2.5%	-9%	3%	19%	-3%
CN1CCC(N(C)C(=S)Nc2ccc(SC(F)F)cc2)CC1	4%	?	15%	-2.6%	-10%	-23%	12%	6%
COc1ccccc1-n1cn[nH]c1=S	1%	8%[46.1 µM]	-1%	·	·	2%	27%	-3%
O=C(Nc1ccccn1)c1ccc([N+](=O)[O-])cc1Cl	2%	10%	4%	-2.0%	9%	3%	25%	7%
CC1(C)CCCC(C)(C)N1CC(O)COCCOc1ccc(Br)cc1 (stereo not given)	?	?	15%	1.4%	0%	1%	0%	-8%
Cc1ccc(/C=C2\SC(=S)N(CC(=O)Nc3ncc(Cc4ccccc4Cl)s3)C2=O)cc1	·	·	3%	-9.8%	3.2µM*	·	·	-14%
Cc1cc2c3c([nH]c2cc1S(=O)(=O)NCc1ccc(CN2CCCCCC2)o1)CCCC3=O	·	·	23%	·	·	-1%	-2%	18%
CC(=O)Nc1ccc(NC(=O)CSc2ccc(-c3ccco3)nn2)cc1	5%	24%	0%	·	·	18%	-5%	4%

Just Cruzain noTriton, SARS PLP yeast and Cruzain inh Det, for some of the entries so far:
Compound	Cruzain noTriton	SARS PLP yeast	Cruzain inh Det
COC(=O)[C@H](Cc1ccccc1)NC(=O)c1ccc2ccccc2n1	·	-6%	·
CCC(C)NC(=O)N[C@@H](CCSC)C(=O)O (stereo not given in full)	5%	-9%	6.8%

(next part)
SMILES	LASV entry inh	Marburg entry inh	SARS PLP yeast	Cruzain inh Det	Cruzain noTriton	RE007 growth inh	StopGo reporter	NS1 function inh
Cc1ccc(CCNS(=O)(=O)c2cc(Br)cnc2N)cc1	-1%[46.1 µM]	-5%[46.1 µM]	-6%	·	·	117%	51%[activator]	-3%
CCC(=Nc1ccccc1NC(C)=O)c1c(O)n(C)c(=O)n(C)c1=O	-4%	1%	5%	2.0%	-7%	-6%	21%	-35%
CCc1ccc(-n2c(SCC(=O)Nc3cc(C)[nH]n3)nc3[nH]ncc3c2=O)cc1	11%	1%	-2%	-0.7%	3%	0%	0%	-11%
COC(=O)c1ccc(S(=O)(=O)c2ccc(Cl)cc2)c(N)c1	·	·	-1%	·	·	-5%	-14%	-2%
O=C(c1cccc(S(=O)(=O)N2CCCc3ccccc32)c1)N1CCN(c2ccccc2)CC1	?	?	-6%	·	·	3%	-17%	·
COc1cccc(C(=O)OCCCOC(=O)c2cccc(OC)c2OC)c1OC	-6%	14%	·	·	·	-2%	-21%	·
CCOc1ccccc1NC(=O)CSc1nnnn1-c1ccccc1	0%	?	-10%	-2.4%	-3%	5%	-8%	-71%
COCCNc1nnc(Cc2ccc(OC)c(OC)c2)c(=O)[nH]1	-16%[46.1 µM]	4%[46.1 µM]	1%	·	·	8%	-11%	3%
COc1ccc(-n2c(SCC(=O)N3CCCc4ccccc43)nc3c([nH]c4ccccc43)c2=O)cc1	7%[46.1 µM]	·	·	0.8%	-3%	·	-14%	·
Cc1ccn2c(=O)nc(SCC(=O)c3ccc(Cl)cc3)nc2c1	8%	?	-4%	·	·	4%	-10%	·
Cc1csc(CNC(=O)c2ccc(OC3CCN(CCc4ccccc4)CC3)cc2)n1	·	·	-1%	·	·	1%	-19%	-8%
COc1ccc(CNC(=O)Cn2ccc3cc(S(=O)(=O)N4CCCC4)ccc32)cc1OC	·	·	0%	·	·	3%	0%	17%
COc1ccc(CC(=O)Nc2c3c(nn2C(C)(C)C)CS(=O)(=O)C3)cc1	2%	25%	2%	·	·	5%	-8%	11%
Cn1c(CC(=O)Nc2ccc(Cl)cc2)nnc1SCC(=O)N1CCOCC1	4%	?	2%	·	·	11%	-13%	-13%
